KSHV LANA nucl: inhibitors of KSHV LANA-nucleosome binding, primary screen, biochemical, fluorescence polarization, FITC-LANA1-23, chicken nucleosomes | FITC-LANA1-23 / chicken nucleosome fluorescence polarization; stronger effect = lower value | z-score (concentration not given with the values) | 51,000 compounds, 0.3% hits | AID 720717, 2013;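 active = both repeat wells score below -2 in polarization z-score versus plate sample wells, excluding overly bright wells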;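 note: 100 nL library stock added to about 30 µL; numbers are from one replicate; some results filed as inactive read as strong as hits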
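Material: Purified chicken nucleosomes with FITC-labelled LANA N-terminal peptide (1-23) | Reagent: 50 nM FITC-LANA1-23 probe | Medium: TEN-BT buffer, pH 7.5 | Times: 10–45 min incubation at room temperature | Detection: Fluorescence polarization | Replication: Duplicates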
BasE inh: BasE siderophore enzyme inhibitors, primary screen, biochemical, Acinetobacter baumannii ATCC 17978, fluorescence polarization; 84,000 compounds, 0.1% hits; purified BasE, fluorescence polarization binding displacement; inhibition, % (test concentration not listed);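 active = both replicates above 25% with normal brightness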;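 note: 0% = negative plate control signal and 100% = positive plate control signal; stock transfer was 100 nL into about 30 µL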
An asterisk follows results filed as active; / = no result given. A portion of the library. The share of hits here may be higher or lower than overall.

Below each SMILES – KSHV LANA nucl | BasE inh
- NC(N)=NC(N)=Nc1cc(-c2cccs2)[nH]n1
  / | 3.6
- O=C(Nc1ccc(OCc2ccccc2)cc1)Oc1ccccc1N1CCCCC1
  0.06 | /
- O=C1CCCCC1Sc1nnc(-c2ccco2)o1 (configuration not stated)
  / | 0.2
- CN(C)c1cccc(C(=O)OC2CCCCC2=O)c1 (configuration not stated)
  / | -2.5
- CCOC(=O)c1cnc2c(C#N)cnn2c1N
  -0.26 | 3.0
- Cc1ccc(C)c(NC(=O)CCN2CCc3ccccc3C2)c1
  0.21 | -1.6
- Cc1ccc(-n2cc(-c3ccc4c(c3)OCO4)[nH]c2=S)cc1
  0.25 | 4.2
- CCOC(=O)c1[nH]c(CSc2nnc3ccccn23)c(C(=O)OCC)c1C
  / | 0.9
- CN(Cc1nc(-c2ccccc2)no1)C(=O)COc1ccccc1
  0.15 | 1.6
- CC1CCN(c2cnnc3c(Cl)cccc23)CC1
  / | -3.3

7 successive entries out of the list so far, for reference:
Below each SMILES – KSHV LANA nucl | BasE inh
- CN(C)c1cccc(C(=O)OC2CCCCC2=O)c1 (configuration not stated)
  / | -2.5
- CCOC(=O)c1cnc2c(C#N)cnn2c1N
  -0.26 | 3.0
- Cc1ccc(C)c(NC(=O)CCN2CCc3ccccc3C2)c1
  0.21 | -1.6
- Cc1ccc(-n2cc(-c3ccc4c(c3)OCO4)[nH]c2=S)cc1
  0.25 | 4.2
- CCOC(=O)c1[nH]c(CSc2nnc3ccccn23)c(C(=O)OCC)c1C
  / | 0.9
- CN(Cc1nc(-c2ccccc2)no1)C(=O)COc1ccccc1
  0.15 | 1.6
- CC1CCN(c2cnnc3c(Cl)cccc23)CC1
  / | -3.3

Further structures.
Below each SMILES – KSHV LANA nucl | BasE inh
- Cc1cc(C)n2nc(C(=O)OCC(=O)N(C3CCCCC3)C3CCCCC3)nc2n1
  / | -2.1
- COc1ccc(C(NC(C)=O)c2ccc(OC)cc2)cc1
  -0.92 | 1.9
- CCc1ccc(NC(=O)Nc2cc3sccc3n2C)cc1
  -0.068 | 2.0
- N#CCc1c(Cl)cccc1Cl
  / | -0.9
- CN(C(=O)CSc1ccc2c(c1)OCCO2)c1ccccc1
  / | -0.9
- O=C(Nc1cccc(Cl)c1)C1=CC=CN2CCS(=O)(=O)N=C12
  / | 1.2
- CC1CCCC/C1=N\NC(=O)CC#N (configuration not stated)
  / | -0.6
- Cc1c(-c2ccccc2)[n+](=O)c2c(n1[O-])CCC2
  -0.37 | -1.1
- COC(CNC(=S)Nc1cccc(C)c1)OC
  -1.2 | 0.9
- N#C/C(=C\c1cn(-c2ccccc2)nc1-c1cccs1)c1ccc(C#N)cc1
  0.31 | 1.4
- CCSc1nnc(NC(=O)/C=C/c2ccccc2)s1
  / | -0.7
- COC(=O)CSc1nc(C(C)(C)C)cc(C(F)(F)F)n1
  0.98 | 0.8
- Cc1cc(C(=O)NCCCN2CCN(c3cc(Cl)ccc3C)CC2)n(-c2ccccc2)n1
  0.49 | 0.1
- CCOC(=O)c1c[nH]c2ccc(Cl)cc2c1=O
  -0.24 | 1.9
- CC(C)Cc1ccc(CC(=O)O)cc1
  / | 3.4
- CC(C(=O)N1CCCCC1)N1CCC(N2CCCCC2)CC1 (configuration not stated)
  -0.81 | 2.0
- COc1ccccc1C(=O)CSC1=NCCS1
  / | -0.2
- CCCCS(=O)(=O)NCc1ccc(OC)c(OC)c1
  / | 0.5
- O=C(CCc1cc(Cl)no1)N1CCC(c2c[nH]c3ccccc23)(c2c[nH]c3ccccc23)CC1
  -1.1 | 2.0
- CN(c1ccc(OCC(=O)NCc2ccncc2)cc1)S(=O)(=O)c1cccs1
  / | 8.2
- Cc1noc(C)c1-c1nnc(-c2cccc(Cl)c2)o1
  -1.1 | 1.0
- O=C(CSc1nnc(-c2ccc(Cl)cc2)o1)N1CCc2ccccc2C1
  / | 1.8
- N#CC(C(=O)c1ccco1)c1nc2ccccc2[nH]1 (configuration not stated)
  / | 1.0
- Cc1ccc(NC(=O)CN(C)C(=O)CSc2nc3ccc(Cl)cc3o2)cc1
  / | 0.1
- COc1ccc2nc(NCc3cccnc3)sc2c1
  -0.78 | 0.2
- O=C(CSc1nnc(-c2ccccc2F)n1Cc1ccccc1)Nc1cccc2nsnc12
  / | 2.6
- CCCC(C)C(=O)N1CC(C)CC(C)C1 (configuration not stated)
  0.092 | 2.6
- O=C(c1ccc(Cl)c(Cl)c1)N1CCC(F)(CO)CC1
  -0.58 | /
- CC1CCN(C(=O)CNC(=O)c2ccc(F)cc2)CC1
  / | 1.1
- COc1ccc2nc(NC(=O)c3ccoc3C)sc2c1
  0.9 | -0.6
- CCN(CC)S(=O)(=O)c1ccc(C(=O)NC2=NCCS2)cc1
  / | 1.1
- CCOc1ccc(C(=O)COC(=O)C23CCC(=O)N2c2ccccc2C(=O)N3C)cc1 (configuration not stated)
  / | -2.6
- OC(CSc1ccc(F)cc1)CN1CCN(c2cccc(C(F)(F)F)c2)CC1 (configuration not stated)
  0.81 | /
- COc1ccc2c(CC(=O)N[C@@H](Cc3c[nH]c4ccccc34)C(=O)O)coc2c1
  / | 1.0
- Cc1cccc(-c2nc3c(cnn3-c3ccccc3)c(=O)n2-c2ccccc2)c1
  / | 0.7
- c1ccc2c(CN3CCN(Cc4c[nH]c5ccccc45)CC3)c[nH]c2c1
  / | -5.2
- COc1ccc(SCC(=O)c2cn(CCC#N)c3ccccc23)cc1
  / | -2.5
- COc1ccc(CNC(=O)COc2ncnc3ccccc23)cc1
  / | -0.5
- CN1CCOc2cc(S(=O)(=O)N3CCCC3c3ccc(F)cc3)ccc21 (configuration not stated)
  -1.3 | /
- Cc1ccc(C)c(S(=O)(=O)n2ncc(C#N)c2N)c1
  / | 0.2
- CS(=O)(=O)N1CCc2cc(C(=O)OCC(=O)c3ccccc3)ccc21
  -1.2 | -7.3
- CN1CCN(S(=O)(=O)Cc2ccc(Cl)cc2)CC1
  -0.46 | /
- O=C(Cc1ccccc1)NO
  0.97 | -3.8
- Cc1c(-c2ccccc2)nc2ccccc2c1C(=O)OCC(=O)N(C)C
  / | -6.3
- O=C(c1ccccc1Cl)n1cnc2ccccc21
  -0.082 | -1.4
- O=C(O)/C=C/C(=O)N1CCN(c2ccc(F)cc2)CC1
  / | 1.1
- CN(C)S(=O)(=O)c1ccc(S(=O)(=O)N2CCC(O)CC2)cc1
  -0.73 | -0.9
- COc1ccc(NC(=O)c2cn(-c3ccccc3)nc2SC)cc1
  -0.62 | 1.4
- O=C1CC(c2cccc(Oc3ccccc3)c2)NC(=O)N1CN1CCN(c2ccccc2)CC1 (configuration not stated)
  / | -1.2
- CN=c1scc(-c2cc(OC)ccc2OC)n1/N=C1\CCc2ccccc21
  / | -0.8

(more compounds)
Below each SMILES – KSHV LANA nucl | BasE inh
- Clc1ccc(-c2nc3ccccc3o2)c(Cl)c1
  -0.36 | 0.1
- O=C(O)c1cnc(SCc2ccccc2)[nH]c1=O
  0.89 | 4.6
- NC(=O)c1nn(Cc2ccccc2)c(=O)c2ccccc12
  / | -0.1
- O=C(O)CC(F)(F)CC(=O)O
  / | 0.0
- CS(=O)(=O)CCC(C(=O)n1nnc2ccccc21)N1C(=O)c2ccccc2C1=O (configuration not stated)
  / | 2.1
- O=C(CCS(=O)(=O)c1cccc2nsnc12)NC1CCCC1
  0.19 | 2.3
- CN(C)/N=C/c1ccc(C(=O)NC(=O)C(F)(F)F)o1
  / | 1.4
- N/C(Cc1cccc2ccccc12)=N\OC(=O)N1CCOCC1
  -0.7 | 1.5
- O=C(c1cccs1)N1CCCn2c(SCc3ccccc3Cl)nnc21
  -0.61 | -1.1
- COC(=O)c1nnn(CC(=O)NCc2ccc3c(c2)OCO3)c1C(=O)OC
  0.0015 | 2.2
- O=C(O)CCCC(=O)N1CCN(c2nc(-c3ccccc3)c3ccccc3n2)CC1
  0.67 | -0.9
- CC(C)n1c(SCC(=O)c2ccc3c(c2)NC(=O)CO3)nc2cc(Cl)ccc2c1=O
  / | -0.1
- Cc1ccc(C(=O)N/N=C/c2ccc(O)c(O)c2O)c(C)c1
  / | 12
- CCC[C@@H]1C[C@@H](C(=O)N[C@H]([C@@H](C)O)[C@H]2O[C@H](SC)[C@H](O)[C@@H](O)C2O)N(C)C1 (some centres not stated)
  0.42 | -0.8
- C=CCn1c(SCC(=O)Nc2ccccc2C(=O)NC2CCCC2)nnc1-c1ccoc1C
  / | -0.5
- CCCOc1ccc(CNC(=S)NCc2ccc(OC(C)C)cc2)cc1
  / | -0.3
- COc1ccc(Nc2nc(C)cc(=O)[nH]2)cc1
  -0.71 | 2.9
- CCCCCn1c(SCC(=O)c2ccccc2)nc2cc(C(=O)NCc3ccco3)ccc2c1=O
  0.04 | 2.6
- CC(C)(c1ccccc1)c1ccc(OCC(=O)NC2CCCC2)cc1
  / | -0.1
- COC(=O)c1ccc(CNC(=O)C2CC2C)cc1 (configuration not stated)
  / | 1.9
- CCSc1nc(=O)[nH]c2c1CCC2
  -1.1 | 1.7
- O=C(O)CCCN1C(=O)CNC1=O
  -0.37 | 1.2
- CCOC(=O)N1CCN(Cc2ccc(C(=O)Nc3ccccc3)cc2)CC1
  / | -5.7
- CCCN(C(=O)[C@H](Cc1ccccc1)N1C(=O)c2ccccc2C1=O)C1CCS(=O)(=O)C1 (some centres not stated)
  / | 3.4
- Cc1[nH]nc2nc3c(c(-c4cc(C)n(C5CCCC5)c4C)c12)C(=O)CCC3
  / | 2.7
- Cc1ccsc1/C=N/N1CCN(c2ccccc2)CC1
  / | 2.1
- Cc1oc2ncn(C)c(=O)c2c1C(=O)N(C)c1ccc(F)cc1
  / | -0.1
- N#Cc1ccc(C(=O)NCc2ccccc2)cc1
  / | -0.2
- Nc1c(-c2nc(-c3ccccc3)cs2)c2ccccn2c1C(=O)c1ccccc1
  / | 2.9
- Cc1ccc(C)c(N2CCN(CCCNC(=O)Nc3ccc(F)c(Cl)c3)CC2)c1
  1.2 | 1.7
- CNS(=O)(=O)c1ccc2c(c1)C(=NO)c1cc(S(=O)(=O)NC)ccc1-2
  / | -0.3
- CCCc1cc(=O)n2[nH]c(NC(=O)c3ccccc3)nc2n1
  0.48 | 0.5
- CC(C)CNC(=O)CSc1n[nH]c(-c2ccc(Br)cc2)n1
  / | 1.6
- CCOc1cc(-n2cnnn2)c(OCC)cc1N
  -0.055 | -1.4
- Cc1cc(N2CCC(C(N)=O)CC2)nc2c(C(C)C)cccc12
  / | -0.4
- O=C(/C=C/c1ccco1)OCc1c(F)cccc1Cl
  / | 0.7
- Cc1[nH]c(=O)c(C#N)c(C)c1CCC(=O)N1CCc2ccccc21
  / | 3.9
- Cc1cc(NC(=O)c2ccc3c(c2)S(=O)(=O)c2ccccc2C3=O)no1
  / | 0.7
- N#Cc1ccc(C=Nc2ccc(N)c(Cl)c2)cc1
  0.43 | 0.3
- CCC(=O)NNc1ncnc2ccccc12
  / | 2.6
- CC(CS(=O)(=O)c1ccc2c(c1)NC(=O)CS2)C(=O)N1CCCCC1 (configuration not stated)
  / | -1.4
- CC(C)CCn1c(=O)c2ccccc2n2c(CSC(C)c3nc4ccccc4c(=O)[nH]3)nnc12 (configuration not stated)
  / | -1.5
- CCOC(=O)c1[nH]c(C)c(C(=O)OCC(=O)N2CCc3ccccc32)c1C
  / | -0.3
- COc1ccc(C(CC(=O)NC2CCCC2)N2Cc3ccccc3C2=O)cc1OC (configuration not stated)
  -1 | 5.1
- CCOC(=O)C1=C(C)Nc2[nH]c(=O)[nH]c(=O)c2C1c1ccccc1 (configuration not stated)
  / | 4.5
- O=C(NCC(F)(F)F)c1cc2ccccc2cc1O
  / | 1.9
- Cn1nccc1C(N)c1ccccc1 (configuration not stated)
  -0.53 | 26*
- O=c1[nH]c(=S)[nH]cc1S(=O)(=O)c1ccc(Cl)cc1
  -1.1 | 0.5
- NCCN1C(=O)C2C3c4ccccc4C(c4ccccc43)C2C1=O (configuration not stated)
  0.34 | -1.6
- CN(C)C(=O)Nc1ccc2c(c1)nnn2C
  -0.99 | -0.7

(continued)
Below each SMILES – KSHV LANA nucl | BasE inh
- CC1CN(C(=S)NC(=O)C2CC2)CCN1C(=S)NC(=O)C1CC1 (configuration not stated)
  / | -0.9
- O=C(CC(C(=O)Nc1ccc2c(c1)OCO2)C(=O)c1ccccc1)NC1CCS(=O)(=O)C1 (configuration not stated)
  / | 0.9
- CNCc1ccc(N2CCCC2)cc1
  / | 0.5
- COC(=O)c1sccc1S(=O)(=O)Nc1ccc(-c2cn3c(n2)SCC3)cc1
  / | -3.5
- CCOc1cc(/C=C(\C#N)C(=O)OC(C)C)ccc1OCC(=O)N(C)C
  / | 0.6
- CN(Cc1ccc(Br)cc1)S(=O)(=O)c1cccc(C#N)c1
  / | 0.2
- N#Cc1ccc(CSCCN2C(=O)c3ccccc3C2=O)cc1
  / | 1.8
- CSc1ccc(S(=O)(=O)NCCc2ccccc2)cc1
  -0.77 | 2.4
- O=C(c1cc(S(=O)(=O)N2CCCCC2)ccc1N1CCCC1)N1CC=C(c2ccccc2)CC1
  / | 1.2
- COCCCn1c(SCc2cc(=O)oc3cc(O)c(O)cc23)nnc1-c1ccc(Cl)cc1
  / | 1.7
- CCn1cc(S(=O)(=O)c2ccc(OC)cc2)c(=O)c2ccccc21
  1.2 | -1.9
- CC1=CC2=NS(=O)(=O)CCN2C=C1
  / | 1.7
- CC(C)(Cc1ccc(O)cc1)NC(=O)c1ccccc1
  0.27 | -0.3
- Cc1cc(COC(=O)/C(C#N)=C/c2ccc(N(C)C)cc2)no1
  / | 0.2
- Cc1ccc(-n2ncc3c(=O)n(-c4ccc(C(C)C)cc4)c(-c4ccco4)nc32)cc1
  -1.3 | 1.7
- c1ccc(Nc2nc3c(s2)Cc2ccccc2-3)cc1
  / | 2.6
